Mtb bLac sens: beta-lactam sensitization of Mtb H37Rv. M. tuberculosis H37Rv growth with meropenem, percent inhibition; hits of this screen are not shown here. inhibition, % at 25 µM. actives 0.27% (n = 330,000). AID 434955;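 active = about 74% or more and at least 40 points above the plate without the antibiotic, then above 30% in a dose series; inconclusive = first-round hits that could not be retested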;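 also: growth measured after seven days incubation then overnight dye step; 0% = bacteria only wells and 100% = bacteria with antibiotic; twin plates without the antibiotic show which effects depend on it; some results filed as inactive read as strong as hits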
Numbers without * were called inactive; ? = inconclusive. An excerpt; count on the stated rates, not on these rows.

structure | Mtb bLac sens
CCN(CC)S(=O)(=O)c1ccc(N2CCOCC2)c(NC(=O)c2cc(Cl)c3c(c2)OCO3)c1 | 4
Cc1noc(C)c1S(=O)(=O)Nc1ccc2c(c1)C(=O)N([C@H](C)CO)C[C@H](C)[C@@H](CN(C)C(=O)Nc1ccc3c(c1)OCO3)O2 | -3
O=C(/C=C/c1cccc([N+](=O)[O-])c1)c1ccco1 | 100
O=C(CN1CCN(S(=O)(=O)c2ccccc2)CC1)Nc1ccccc1C(=O)NC1CC1 | -7
Cc1cc(NC(=O)COC(=O)C2CC(=O)N(c3ccc(C)c(Cl)c3)C2)no1 (centres undefined) | 7
CC(NC(=O)CN1C(=O)NC2(CCc3ccccc32)C1=O)c1ccccc1 (centres undefined) | -1
CCOc1ccc(/C=N/NC(=O)c2ccc(F)cc2)cc1CN1CC2CC(C1)c1cccc(=O)n1C2 (centres undefined) | 52
O=C(CSc1ccccc1F)NCC(c1cccs1)N1CCOCC1 (centres undefined) | -2

Shown field by field: part of the list above
O=C(CN1CCN(S(=O)(=O)c2ccccc2)CC1)Nc1ccccc1C(=O)NC1CC1
  Mtb bLac sens: -7
Cc1cc(NC(=O)COC(=O)C2CC(=O)N(c3ccc(C)c(Cl)c3)C2)no1 (centres undefined)
  Mtb bLac sens: 7
CC(NC(=O)CN1C(=O)NC2(CCc3ccccc32)C1=O)c1ccccc1 (centres undefined)
  Mtb bLac sens: -1
CCOc1ccc(/C=N/NC(=O)c2ccc(F)cc2)cc1CN1CC2CC(C1)c1cccc(=O)n1C2 (centres undefined)
  Mtb bLac sens: 52

The listing continues.
structure | Mtb bLac sens
CC(=O)N1CCN(c2ccc(NCc3ccc(-c4cccc(Cl)c4)o3)cc2)CC1 | 13
CN(C(=O)c1ccc(NC(=O)Cc2ccc(NC(=O)C3CCCN(C(=O)C4CCC4)C3)cc2)cc1)C1CC1 (centres undefined) | 10
CCN(C[C@H]1N[C@@](C)(C(=O)OC)[C@H]2C(=O)N(C)C(=O)[C@@H]12)C(=O)c1ccccc1 | -2
COc1ccc(C(=O)NCCOc2ccccc2)cc1S(=O)(=O)N1CCOCC1 | -1
O=C(COC(=O)c1c(F)cccc1Cl)NCC1CCCCC1 | -9
Cc1ccc(Cl)c(NC(=O)COC(=O)c2nn(-c3ccccc3)cc2O)c1Cl | 87
COc1cc2ccccc2cc1C(=O)OCC(=O)c1c(N)n(C)c(=O)n(C)c1=O | -4
Cc1ccc(S(=O)(=O)N2CCCCC2)cc1NC(=O)C1CCC1 | 2
Cc1csc(NC(=O)c2cc3ccccc3o2)n1 | 18
COC(=O)c1cccc(NC(=O)CCc2c(C)noc2C)c1 | 1
COC(=O)C1=C(c2ccc3ccccc3c2)C[C@@H]2CC[C@H]1N2C(=O)NCCNC(C)=O | 2
C#CCOCCOCCOCCNc1nc(N2CCN(C(=O)CCCCCCCCCCNC(=O)[C@H](CCCCN)n3cc(CCO)nn3)CC2)nc(N2CCN(C(=O)CCCCCCCCCCNC(=O)[C@H](CCCCN)n3cc(CCCC(=O)O)nn3)CC2)n1 | 0
C[C@@H]1CN([C@@H](C)CO)C(=O)c2cccc(NC(=O)Nc3ccccc3)c2O[C@H]1CN(C)C(=O)Nc1cccc2ccccc12 | 2
COc1cc2c(=O)n(CCC(=O)NCC3CCCO3)c(=O)n(CC(=O)Nc3ccc(F)cc3)c2cc1OC (centres undefined) | -7
COc1ccccc1C(=O)NC(=O)CSc1nnc(N)s1 | 0
O=C(Nc1nnc(CCc2ccccc2)s1)c1ccccc1 | 1
CC1CCCCC12NC(=O)N(CC(=O)NCc1ccccc1Cl)C2=O (centres undefined) | -13
O=C1C=C(c2ccc(-c3ccccc3)cc2)C[C@@H](c2ccc3c(c2)OCO3)C1 | -3
CC(C)(O)CC[C@@H](O)[C@](C)(O)C1CC[C@@]2(O)C3=CC(=O)[C@@H]4C[C@@H](O)[C@@H](O)C[C@]4(C)C3CC[C@]12C (some centres undefined) | -3
Cc1c(C(=O)N2CCN(c3ncccn3)CC2)oc2ccc(Cl)cc12 | 1
COc1ccccc1NC(=O)COC(=O)c1cc2ccccc2cc1O | -7
O=C(COC(=O)c1cccnc1Cl)NCCc1ccccc1 | -1
Cc1ccc(NC(=O)CN2CCCC2c2cccn2C)cc1C (centres undefined) | 8
COc1cc(N)c(Cl)cc1C(=O)OCC(=O)Nc1ccc(N2CCOCC2)cc1 | -2
O=C(OCC(=O)N1CCc2ccccc21)[C@@H]1CCCN1S(=O)(=O)c1ccccc1F | 4
Cc1noc(C)c1S(=O)(=O)Nc1ccc2c(c1)C(=O)N([C@H](C)CO)C[C@H](C)[C@@H](CN(C)C(=O)Nc1ccc(C(F)(F)F)cc1)O2 | 3
CCn1ncc(Cl)c1C(=O)NC(=S)Nc1ccccc1Br | ?
CCCc1cc(=O)[nH]c(SCC(=O)Nc2c(C)n(C)n(-c3ccccc3)c2=O)n1 | -3
CCOc1ccc(C(=O)N[C@H](C(=O)Nc2ccc(S(=O)(=O)Nc3nccs3)cc2)C(C)C)cc1 | 3
CCC(CO)Oc1cc(NCc2ccc(Cl)cc2)c2ncn(C(C)C)c2c1 (centres undefined) | 4
Cc1noc(C)c1COc1ccccc1C(=O)NCc1ccco1 | 4
O=C(O)[C@@H]1CCCN1C(=O)COc1ccc2c3c(c(=O)oc2c1)CCC3 | 1
C=CCNc1nc(C(F)(F)F)nc2c1nnn2Cc1ccccc1Cl | -8
CCC(=O)c1ccc(OCC(=O)Nc2ccc3c(c2)OCCO3)cc1 | 53
COC(=O)c1ccc(CNC(=O)CCNC(=O)c2ccco2)cc1 | 9
O=C(C[C@@H]1C/C=C\C[C@@H](Cc2ccc(F)cc2)C(=O)OC[C@H]2CCCN2C1=O)N[C@H](CO)Cc1ccccc1 | -1
CC(=O)Nc1ccc(C(=O)Nc2cccc(S(=O)(=O)N(C)c3ccccc3)c2)cc1 | -5
CN(C)S(=O)(=O)c1cccc(NC(=O)COC(=O)[C@H](Cc2ccccc2)NC(=O)c2ccco2)c1 | -2
COc1cc(F)c(C2=CC(=O)CC(C)(C)C2)cc1F | -1
CCOC(=O)c1nn(-c2ccc(C)c(C)c2)c(=O)c(C#N)c1C | 0
C#CCOCCOCCOCCNc1nc(N2CCN(C(=O)CCCCCCCCCCNC(=O)Cn3cc(CCCCCN)nn3)CC2)nc(N2CCN(C(=O)CCCCCCCCCCNC(=O)Cn3cc(C[C@@H](C)O)nn3)CC2)n1 | 31
COc1ccc(CNC(=O)Cn2ccc(NC(=O)OCc3ccccc3)nc2=O)cc1 | 7
O=C(CCc1ccc(S(=O)(=O)N2CCOCC2)cc1)Nc1ccc(F)cc1[N+](=O)[O-] | -5
COC(=O)C1=C(c2ccc3ccccc3c2)C[C@@H]2CC[C@H]1N2C(=O)NCC1CC1 | 3
CC(=O)N[C@@H](Cc1c[nH]c2ccccc12)C(=O)OCc1cc(C(F)(F)F)cc(C(F)(F)F)c1 | -6
CC(C(=O)NC1CCCC1)N1CCN(S(=O)(=O)c2ccc(C(C)(C)C)cc2)CC1 (centres undefined) | -8
CN1CCN(c2ccc(S(=O)(=O)N3CCOCC3)cc2NC(=O)CSCc2ccccc2)CC1 | -7
CC(=O)N1CCN(C(=O)CCNS(=O)(=O)c2ccc(Br)cc2)CC1 | -7
C/C(CC(=O)Nc1ccc2c(c1)OCCO2)=N\NC(=O)COc1ccccc1C | -7
COc1cc(NC(=O)C2CCCCC2)c(OC)cc1NC(=O)c1ccccc1 | 78
CCOC(=O)C1=C(COC(=O)CCOc2ccccc2)NC(=O)NC1C (centres undefined) | 3
C/C(=N\NC(=O)c1cc(C)oc1C)c1ccc(C)c([N+](=O)[O-])c1 | 5
COc1ccc(OC)c(/C=C/C(=O)Nc2cccc(S(=O)(=O)NC3=NCCCCC3)c2)c1 | 4
CC1CN(C(=O)COC(=O)[C@@H](NC(=O)c2ccccc2Cl)C(C)C)CC(C)O1 (some centres undefined) | -1
O=C(CN1C(=O)c2ccc([N+](=O)[O-])cc2C1=O)Nc1cc(S(=O)(=O)N2CCOCC2)ccc1Cl | 1
O=C(COC(=O)COc1ccc(Cl)cc1Br)NCCC1=CCCCC1 | 1

For reference, part of the list above:
structure | Mtb bLac sens
C/C(CC(=O)Nc1ccc2c(c1)OCCO2)=N\NC(=O)COc1ccccc1C | -7
COc1cc(NC(=O)C2CCCCC2)c(OC)cc1NC(=O)c1ccccc1 | 78
CCOC(=O)C1=C(COC(=O)CCOc2ccccc2)NC(=O)NC1C (centres undefined) | 3
C/C(=N\NC(=O)c1cc(C)oc1C)c1ccc(C)c([N+](=O)[O-])c1 | 5

New compounds follow
structure	Mtb bLac sens
COc1ccccc1NC(=O)c1ccc(NC(=O)C2COc3ccccc3O2)cc1 (centres undefined)	66
CCN(CC(=O)Nc1cccc(OC)c1)C(=O)c1ccncc1	-3
CC1CCc2c(sc(NC(=O)c3cccn3C)c2C(N)=O)C1 (centres undefined)	-1
CN(c1ccccc1)S(=O)(=O)c1cccc(NC(=O)c2ccc(=O)[nH]c2)c1	0
Cc1cc(CNC(=O)c2cccc3c2C(=O)c2ccc(-c4ccc(F)cc4OCc4ccccc4)cc2S3(=O)=O)c(C(F)(F)F)o1	6
C[C@@H]1CN([C@@H](C)CO)C(=O)c2cc(NS(C)(=O)=O)ccc2O[C@H]1CN(C)Cc1ccc(Oc2ccccc2)cc1	2
CS(=O)(=O)N(Cc1nc(-c2ccc(F)cc2)no1)c1ccccc1Cl	3
CN(CC(=O)Nc1ccc(Cl)cc1)C(=O)c1cccc(S(=O)(=O)N2CCN(Cc3ccccc3)CC2)c1	65
O=C(NCC1CCCCC1)c1ccc(Cl)c(S(=O)(=O)N2CCOCC2)c1	-9
O=C1C=C(c2ccc(O)cc2)C[C@@H](c2ccc3c(c2)OCO3)C1	52
Cc1ccccc1-c1nnc(SCC(=O)N(C)C2CCS(=O)(=O)C2)n1C (centres undefined)	-2
C[C@H](CO)N1C[C@H](C)[C@@H](CN(C)C(=O)Nc2ccc(C(F)(F)F)cc2)Oc2ccc(NC(=O)C3CC3)cc2C1=O	-6
CCc1ccc([C@@H]2CC=C(C(=O)O)[C@H](c3ccccc3)N2S(=O)(=O)c2ccc(C)cc2)cc1	-4
CC(C)Oc1ccc(C(=O)Nc2nc3ccccc3[nH]2)cc1	96
CN1C2CCC1CC(NC(=O)c1cc(S(=O)(=O)N(C)C)c(Cl)cc1Cl)C2 (centres undefined)	2
CC(=O)NC(CC(=O)NNC(=O)COc1c(C)cccc1C)c1ccccc1 (centres undefined)	4
Cc1ccc(S(=O)(=O)NCC(=O)OCc2cc(=O)oc3cc(C)ccc23)cc1	-6
COc1ccc(C(CNC(=O)c2ccc(S(=O)(=O)N3CC(C)CC(C)C3)cc2)N(C)C)cc1 (centres undefined)	-9
CCOc1ccccc1NC(=O)COC(=O)COc1c(Cl)cc(Cl)c2ccc(C)nc12	63
COCc1c(C(=O)N2CCN(c3ncccn3)CC2)oc2ccccc12	4
CCN(CC)S(=O)(=O)c1ccc(NC(=O)CCN2C(=O)C3CC=CCC3C2=O)cc1 (centres undefined)	3
Cc1ccc(SCC(=O)OCC(=O)N(C)C2CCS(=O)(=O)C2)cc1C (centres undefined)	-5
O=C(CC1SC(N2CCOCC2)=NC1=O)Nc1ccc(F)cc1 (centres undefined)	-3
Cc1ccccc1-c1cc(C(=O)NCC2CC2)nn1CC1CC(c2cccc([N+](=O)[O-])c2)=NO1 (centres undefined)	49
COc1ccc(C(=O)NCc2c(C)nn(Cc3ccccc3)c2C)cc1S(=O)(=O)N1CCOCC1	-5
Cc1ccc(N2CC(C(=O)OCC(=O)Nc3ccc(F)cc3F)CC2=O)cc1 (centres undefined)	-5
COc1ccc(S(=O)(=O)Nc2ccc3c(c2)C(=O)N([C@H](C)CO)C[C@H](C)[C@@H](CN(C)S(C)(=O)=O)O3)cc1	1
Cc1cc(NC(=O)COc2ccccc2C#N)no1	-4
COC(=O)C1=C(c2cccc(NC(C)=O)c2)C[C@@H]2CC[C@H]1N2C	3
CN(c1cccc(Cl)c1)S(=O)(=O)c1cccc(C(=O)NN2CCOCC2)c1	-7
COc1cc(/C=C/c2nc3ccccc3c(=O)[nH]2)cc(Br)c1O	6
NC(=O)c1ccc(OCCC(O)N2CC=C(c3ccc(F)cc3)CC2)cc1 (centres undefined)	-5
O=S(=O)(/N=C(/c1ccccc1)N1CCOCC1)c1ccc(F)cc1F	6
CC(OC(=O)c1ccccn1)C(=O)Nc1nc(-c2ccc(F)c(F)c2)cs1 (centres undefined)	4
COc1ccc(-c2cn(Cc3ccc(C(N)=O)cc3)c(-c3ccc(Cl)nc3)n2)cc1	-1
COc1ccccc1OCCSc1nc2ccccc2n1CC(O)CO (centres undefined)	0
Cc1ccc(NC(=O)c2nnn(-c3ccc4c(c3)OCCO4)c2N)cc1	-5
CCN(C(=O)CSc1nnnn1C)C1CCCCC1	0
Cc1cc(F)ccc1S(=O)(=O)Nc1ccc(C(=O)N(C)Cc2ccco2)cc1	2
CN(CC(=O)NCCN1CCOCC1)S(=O)(=O)c1ccc(Cl)cc1	-6
O=C(NCCN1CCOCC1)c1cccc2c1C(=O)c1ccc(N3CCCC3)cc1S2(=O)=O	-2
O=S(=O)(Nc1cccc(S(=O)(=O)N2CCCC2)c1)c1cccc(Br)c1	-1
Nc1c(C(=O)OCC(=O)Nc2ccc(OC(F)F)cc2)[nH]c(=O)[nH]c1=O	-5
Cc1ccc(S(=O)(=O)N2[C@@H](c3cccc(Cl)c3)C(C(=O)O)=CC[C@H]2c2ccc(Cl)cc2)cc1	-7
COc1ccc(CNC(=O)COC(=O)c2cc(C)nc3ccccc23)cc1	0
CCC(C)NC(=O)c1ccc(NC(=O)CC2SC(N3CCCC3)=NC2=O)cc1 (centres undefined)	-8
O=C(COC(=O)c1cccc(F)c1)Nc1ccc(Cl)cn1	-4

Compound activity deposited in PubChem BioAssay by Southern Research Specialized Biocontainment Screening Center.
